Screening data deposited in PubChem by Broad Institute.
Ecoli rRNA inh: reduced GFP signal of wild-type E. coli, primary screen, bacterial rRNA inhibitor project, GFP/RFP fluorescence, OD600, single point | E. coli WT GFP vs humanized-ribosome RFP mutants, 24 h; stronger effect = lower value; DMSO median 0, no signal -100 | GFP signal change (wild-type ribosome), % (test concentration not listed) | hit rate 1.6% among 350,000 | AID 720706, 2013;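 active = significant combined selectivity score with lowered wild-type GFP, culture density cut under 30%, mutant RFP and density less affected; inactive = any of these conditions unmet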; also: one replicate is shown; some compounds called inactive have numbers as strong as hits
Ecoli rRNA inh OD600: recorded beside Ecoli rRNA inh, whose call it bears; OD600 change, %; measured here: OD600 growth;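 optical density of the mix in the first replicate; 0 = DMSO median and -100 = no signal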
Ecoli rRNA inh RFP: further read-out of Ecoli rRNA inh, marked with its call; RFP signal change, %; measured here: RFP humanized mutant strains;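 first replicate; 0 = DMSO median and -100 = no signal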
An asterisk follows results filed as active; & = joins results of further samples. The list is partial; count on the stated rates, not on these rows.

Ecoli rRNA inh	Ecoli rRNA inh OD600	Ecoli rRNA inh RFP	molecule
3	-1	-2.2	Cc1ccccc1-c1cnc2c(c1)C(=O)N([C@H](C)CO)C[C@@H](C)[C@H](CN(C)Cc1cncnc1)O2
-7	-6	2.6	C[C@H](CO)N1C[C@H](C)[C@H](CN(C)C(=O)C2CC2)Oc2cc(C3=CCCC3)ccc2S1(=O)=O
-4	-27	13	CCC(=O)N(C)C[C@@H]1Oc2cc(C#CC3CCCCC3)ccc2S(=O)(=O)N([C@H](C)CO)C[C@H]1C
1	10	0.8	Cc1cc(OCC(=O)Nc2nnc(C3CC3)s2)ccc1Cl
11	15	14	O=C(C[C@@H]1C[C@@H]2c3cc(NC(=O)c4ccc5c(c4)OCO5)ccc3O[C@@H]2[C@@H](CO)O1)NCc1ccc(Cl)cc1
12	12	0.9	O=C(NCc1ccccc1)[C@H]1CCCN1C(=O)[C@H]1CCCN1C(=O)c1ccc(F)cc1
-9	-8	0.6	C[C@@H]1CN([C@@H](C)CO)C(=O)Cc2cc(NC(=O)C3CCCCC3)ccc2O[C@@H]1CN(C)Cc1ccc(C(=O)Nc2ccccc2N)cc1
2	6	-0.9	C[C@@H]1CN([C@H](C)CO)C(=O)c2cccc(NS(=O)(=O)c3cccs3)c2O[C@H]1CN(C)Cc1ccc(C(=O)O)cc1
7	11	-3.0	COC(=O)C1=C(C)N(Cc2ccccc2C(F)(F)F)C(=NCc2ccc(OC)cc2)NC1c1ccccc1C(F)(F)F (stereo unspecified)
2	6	0.8	C[C@H](CO)N1C[C@H](C)[C@@H](CN(C)S(=O)(=O)c2ccc(Cl)cc2)OCc2ccccc2-c2c(n(C)c3ccccc23)C1=O
6	14	-2.2	O=C(NC1CCCC1)[C@H]1[C@H](CO)[C@H]2Cn3c(cccc3=O)[C@H]2N1C(=O)NC1CCCC1
-1	-1	-1.7	C[C@H](CO)N1C[C@H](C)[C@@H](CN(C)C(=O)Nc2ccccc2)OCCCC[C@H](C)Oc2ccc(NC(=O)NC3CCCCC3)cc2C1=O
0	-2	0.4	C[C@H](CO)N1C[C@H](C)[C@H](CN(C)Cc2ccccc2)Oc2c(NS(=O)(=O)c3ccccc3)cccc2C1=O
7	7	2.5	C[C@H]1CN([C@@H](C)CO)C(=O)c2cc(NC(=O)Nc3ccc(F)cc3)ccc2O[C@@H]1CN(C)Cc1ccc(C(F)(F)F)cc1
3	2	-0.7	C[C@@H]1CN([C@@H](C)CO)C(=O)c2cc(-c3cccc(C(=O)N(C)C)c3)cnc2O[C@@H]1CN(C)S(=O)(=O)c1ccc(F)cc1
-1	0	1.1	Cc1ccccc1-c1cnc(C(O)c2ccc(F)cc2C)[nH]1 (stereo unspecified)
2	10	-2.6	C[C@H](CO)N1C[C@H](C)[C@@H](CN(C)Cc2cncnc2)Oc2ncc(-c3cncnc3)cc2C1=O
-5	-4	8.0	COc1ccc2c3c(n(C)c2c1)[C@@H](CO)N(C(=O)Cc1ccccc1)CC31CCN(C(=O)Cc2ccccc2)CC1
-22	-30	-2.4	Cn1cnc(CCNC(=O)C[C@@H]2CC[C@@H]3[C@H](COC[C@@H](O)CN3C(=O)Nc3ccc(C(F)(F)F)cc3)O2)c1
-33	-62	3.6	O=S(=O)(c1ccccc1)N1C[C@@H]2[C@H](c3ccccc31)[C@H](CO)N2Cc1ccc(F)cc1

Rewritten with tabs: part of the list above
SMILES	Ecoli rRNA inh	Ecoli rRNA inh OD600	Ecoli rRNA inh RFP
O=C(NCc1ccccc1)[C@H]1CCCN1C(=O)[C@H]1CCCN1C(=O)c1ccc(F)cc1	12	12	0.9
C[C@@H]1CN([C@@H](C)CO)C(=O)Cc2cc(NC(=O)C3CCCCC3)ccc2O[C@@H]1CN(C)Cc1ccc(C(=O)Nc2ccccc2N)cc1	-9	-8	0.6
C[C@@H]1CN([C@H](C)CO)C(=O)c2cccc(NS(=O)(=O)c3cccs3)c2O[C@H]1CN(C)Cc1ccc(C(=O)O)cc1	2	6	-0.9
COC(=O)C1=C(C)N(Cc2ccccc2C(F)(F)F)C(=NCc2ccc(OC)cc2)NC1c1ccccc1C(F)(F)F (stereo unspecified)	7	11	-3.0
C[C@H](CO)N1C[C@H](C)[C@@H](CN(C)S(=O)(=O)c2ccc(Cl)cc2)OCc2ccccc2-c2c(n(C)c3ccccc23)C1=O	2	6	0.8
O=C(NC1CCCC1)[C@H]1[C@H](CO)[C@H]2Cn3c(cccc3=O)[C@H]2N1C(=O)NC1CCCC1	6	14	-2.2

(more compounds)
Ecoli rRNA inh	Ecoli rRNA inh OD600	Ecoli rRNA inh RFP	molecule
0	-4	-1.7	C[C@H](CO)N1C[C@H](C)[C@H](CN(C)Cc2ccncc2)Oc2cc(C#C[C@@H](C)O)ccc2S1(=O)=O
-1	0	-2.1	O=C(NCC[C@H]1CC[C@@H](NS(=O)(=O)Cc2ccccc2)[C@@H](CO)O1)C1CCCC1
-36	-30	-3.5	CC(C)C[C@@H]1O[C@H](CCc2ccccc2)Cc2[nH]c(=S)[nH]c(=O)c21
1	2	-2.2	CO[C@H]1CN(C)C(=O)c2ccc(NS(C)(=O)=O)cc2OC[C@@H](C)N(C(=O)C2CC2)C[C@H]1C
7	1	1.9	C[C@@H]1CN([C@H](C)CO)C(=O)c2cccc(NS(=O)(=O)c3cccs3)c2O[C@@H]1CN(C)C(=O)Nc1cccc2ccccc12
2	3	-0.3	O=C(Cc1ccccc1)NCC(=O)N1CCN(c2ccc(F)cc2)CC1
9	10	-1.6	CN(C)C(=O)c1ccc(-c2ccc([C@@H]3[C@H](C#N)N(C(=O)C4CC4)[C@H]3CO)cc2)cc1
-7	-17	3.0	CC(=O)N(C)C[C@H]1Oc2cc(/C=C/c3ccccc3)ccc2S(=O)(=O)N([C@@H](C)CO)C[C@@H]1C
12	11	-0.7	Cc1cccc(C)c1NC(=O)C(c1ccccc1)N1CCC(c2ccccc2)CC1 (stereo unspecified)
11	5	0.3	CNC[C@H]1Oc2ccc(NS(=O)(=O)c3ccc(Cl)cc3)cc2C(=O)N([C@H](C)CO)C[C@H]1C
4	5	-0.1	C[C@@H]1CN([C@H](C)CO)C(=O)c2cccc(NC(=O)Nc3ccc4c(c3)OCO4)c2O[C@H]1CN(C)C
7	-3	4.7	C[C@H]1CN([C@@H](C)CO)C(=O)c2cccc(NC(=O)Nc3cccc4ccccc34)c2O[C@@H]1CN(C)S(=O)(=O)c1cn(C)cn1
-6	-38	-3.3	CC[C@H]1CC=CC[C@@H](C)Oc2ccccc2C(=O)N(C)[C@H](Cc2ccccc2)C(=O)N1 (mixture of isomers)
6	2	-2.6	C[C@@H]1CN([C@H](C)CO)C(=O)c2cc(NS(=O)(=O)c3cn(C)cn3)ccc2O[C@@H](C)CCCCO[C@H]1CN(C)Cc1ccncc1
-11	-9	-13	COC(=O)c1ccc(Cn2c(C)c(C(=O)NCc3cccc(C(F)(F)F)c3)sc2=O)o1
2	-5	2.8	C[C@@H]1CN([C@H](C)CO)S(=O)(=O)c2ccc(C#Cc3cccnc3)cc2O[C@@H]1CN(C)C(=O)CN(C)C
-7	-20	-1.9	C[C@@H]1CN([C@H](C)CO)C(=O)c2cccc(N(C)C)c2O[C@H]1CN(C)S(=O)(=O)c1cccs1
4	-4	5.3	C[C@@H]1CN([C@H](C)CO)C(=O)c2cc(NC(=O)c3ccccc3)ccc2O[C@@H](C)CCCCO[C@H]1CN(C)Cc1ccc(Cl)c(Cl)c1
0&2	-3&-4	0.1&-1.6	C[C@@H]1CN([C@H](C)CO)C(=O)c2cc(NS(=O)(=O)c3ccccc3)ccc2O[C@@H](C)CCCCO[C@@H]1CN(C)Cc1ccccc1
2	-3	-2.2	C[C@@H]1CN([C@H](C)CO)C(=O)Cc2cc(NC(=O)c3ccncc3)ccc2O[C@@H]1CN(C)C(=O)Nc1ccc(C(F)(F)F)cc1

Pulled one by one from the entries so far, three records:
Ecoli rRNA inh	Ecoli rRNA inh OD600	Ecoli rRNA inh RFP	molecule
7	11	-3.0	COC(=O)C1=C(C)N(Cc2ccccc2C(F)(F)F)C(=NCc2ccc(OC)cc2)NC1c1ccccc1C(F)(F)F (stereo unspecified)
4	5	-0.1	C[C@@H]1CN([C@H](C)CO)C(=O)c2cccc(NC(=O)Nc3ccc4c(c3)OCO4)c2O[C@H]1CN(C)C
4	-4	5.3	C[C@@H]1CN([C@H](C)CO)C(=O)c2cc(NC(=O)c3ccccc3)ccc2O[C@@H](C)CCCCO[C@H]1CN(C)Cc1ccc(Cl)c(Cl)c1

Continuation.
Ecoli rRNA inh	Ecoli rRNA inh OD600	Ecoli rRNA inh RFP	molecule
3	1	-2.4	C[C@H]1CN([C@@H](C)CO)C(=O)c2cccc(NS(=O)(=O)c3ccc(Cl)cc3)c2O[C@@H]1CN(C)Cc1ccc(Cl)c(Cl)c1
-13	-46	-14	CC1(Oc2cccc(C#N)c2)CCN(Cc2csc3ccccc23)C1 (stereo unspecified)
-34	-61	16	O=C(Nc1cc(F)ccc1F)N1CC(=O)N2[C@H](C1)[C@@H](c1ccc(-c3ccc(F)cc3)cc1)[C@@H]2CO
4	14	-5.1	CCc1nc2ccc(C(=O)NCCCN3CCCC3=O)cn2c1N(C)C(=O)c1cccc(OC)c1
